Screening data from PubChem.
KCNQ2 block: KCNQ2 potassium channel inhibitors, primary screen, cell-based, CHO-K1, FluxOR thallium flux, B-score (AID 2156). 20 min; active compounds read low; only compounds with negative scores are shown here; some inactives read as strong as hits. O88943. B-score at 10 µM. 1.1% of 310,000 active;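 active = fluorescence ratio B-score at most minus 3 library SDs, with starting brightness B-score within 2 library SDs, cut at about -5.5 in these data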
Target sequence (O88943 whole entry, looked up): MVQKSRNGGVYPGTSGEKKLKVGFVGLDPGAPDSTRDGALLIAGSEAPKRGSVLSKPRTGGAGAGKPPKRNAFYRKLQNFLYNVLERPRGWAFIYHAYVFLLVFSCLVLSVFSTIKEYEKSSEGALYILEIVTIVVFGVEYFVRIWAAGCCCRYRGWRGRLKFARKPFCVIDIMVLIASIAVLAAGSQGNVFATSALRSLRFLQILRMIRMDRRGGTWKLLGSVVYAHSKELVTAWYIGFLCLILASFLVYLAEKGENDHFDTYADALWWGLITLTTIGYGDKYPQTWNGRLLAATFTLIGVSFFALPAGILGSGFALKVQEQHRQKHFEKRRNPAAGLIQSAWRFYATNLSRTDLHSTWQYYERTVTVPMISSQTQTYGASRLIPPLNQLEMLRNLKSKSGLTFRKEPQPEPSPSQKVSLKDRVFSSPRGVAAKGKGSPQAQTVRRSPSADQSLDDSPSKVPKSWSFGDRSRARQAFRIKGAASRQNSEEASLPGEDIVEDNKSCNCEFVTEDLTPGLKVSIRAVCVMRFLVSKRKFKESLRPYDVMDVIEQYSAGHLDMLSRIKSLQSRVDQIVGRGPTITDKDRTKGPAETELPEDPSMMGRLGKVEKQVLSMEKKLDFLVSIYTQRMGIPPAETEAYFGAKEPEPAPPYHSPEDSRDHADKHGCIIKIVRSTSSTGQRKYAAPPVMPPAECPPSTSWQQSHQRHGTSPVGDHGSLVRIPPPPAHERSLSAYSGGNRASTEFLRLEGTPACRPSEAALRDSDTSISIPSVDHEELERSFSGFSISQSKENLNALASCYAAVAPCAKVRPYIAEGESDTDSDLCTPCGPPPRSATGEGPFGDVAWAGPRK
KCNQ2 block baseline: recorded beside KCNQ2 block, whose call it bears; B-score; measured here: initial fluorescence intensity artifact check;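 brightness before thallium and not channel activity; 0 = typical well and far values either way flag optical interference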
Starred values were filed as active, the others as inactive; i = inactive. A portion of the library; rates above refer to the full screens.

SMILES	KCNQ2 block	KCNQ2 block baseline
COc1cc(OC)cc(C(=O)NCCCNC(=O)c2ccccn2)c1	i	0.53
COc1cc(NC(=O)c2cc(-c3ccc(C)cc3)on2)cc(OC)c1OC	i	-2.6
O=C(COc1ccc(Cl)cc1)N1CCN(c2ccc([N+](=O)[O-])c(N3CCCCC3)c2)CC1	i	-1.6
O=C(CCNC(=O)c1ccco1)Nc1cccc(C(F)(F)F)c1	i	-1.3
CCCCc1cc2c(c(NC(C)=O)n1)c(=O)oc1ccccc12	i	-1.5
NC(=O)CCn1nc(-c2ccc(Cl)cc2)c2ccccc2c1=O	i	-0.19
COc1ccc(N(C)S(=O)(=O)c2cccc3nsnc23)cc1	i	0.15
CC(=O)c1ccc(N2CCN(C(=O)c3ccco3)CC2)c(F)c1	i	0.59
COc1ccc(N(CC(=O)NCc2ccc3c(c2)OCO3)S(=O)(=O)c2ccccc2[N+](=O)[O-])c(OC)c1	i	-0.59
CC1(C)OC(C)(C)/C(=C/Nc2ccccc2)C1=O	i	1.7
CCN(CC)c1ccc(C=Nc2ccc(N(C)C)cc2)c(O)c1	i	2.2
O=C(C1CCC1)N1CCC(O)(c2cccc(F)c2)CC1	i	0.09

Reprinted from the part before: seven entries, followed by the next part.
SMILES	KCNQ2 block	KCNQ2 block baseline
NC(=O)CCn1nc(-c2ccc(Cl)cc2)c2ccccc2c1=O	i	-0.19
COc1ccc(N(C)S(=O)(=O)c2cccc3nsnc23)cc1	i	0.15
CC(=O)c1ccc(N2CCN(C(=O)c3ccco3)CC2)c(F)c1	i	0.59
COc1ccc(N(CC(=O)NCc2ccc3c(c2)OCO3)S(=O)(=O)c2ccccc2[N+](=O)[O-])c(OC)c1	i	-0.59
CC1(C)OC(C)(C)/C(=C/Nc2ccccc2)C1=O	i	1.7
CCN(CC)c1ccc(C=Nc2ccc(N(C)C)cc2)c(O)c1	i	2.2
O=C(C1CCC1)N1CCC(O)(c2cccc(F)c2)CC1	i	0.09
CSc1n[nH]c(NCc2cccs2)n1	i	-1.4
Cc1ccc(NC(=O)c2ccccc2NS(=O)(=O)c2ccc(Cl)s2)cc1	i	1
C=CCn1c(SCCC)nc2sc3c(c2c1=O)CCc1ccccc1-3	i	-1.9
Cn1nnnc1SCC(=O)NNC(=O)c1ccc(Br)cc1	i	-0.02
Nc1ccccc1C(=O)NNC(=O)C(=O)/C=C(\O)c1ccccc1	i	2.7
COc1cc(CN(C)Cc2cc(=O)oc3cc(C)c(Cl)cc23)ccc1OC(F)F	i	-0.07
COc1ccc(S(=O)(=O)N2CCC3(CC2)CC(=O)c2ccccc2O3)cc1	i	-0.46
O=c1c2ccccc2nc(/C=C/c2ccc(Br)cc2)n1CCCO	i	-0.29
Cc1ccnc(NC(=O)Nc2ccc3c(c2)OCO3)c1	i	0.95
Cc1cc(N=NC(=O)c2ccccc2O)c2ccccc2c1O	i	-1
O=C(Nc1ccc2c(c1)CCC2)c1cccc(OC(F)F)c1	i	-1.1
CC(C)Oc1ccc(CN2CCC(n3nccc3NC(=O)c3cccnc3)CC2)cc1	i	0.19
COC(=O)Cc1ccc(NC(=S)NCCO)cc1	i	-0.61
CNc1ncc(C(=O)C(C)(C)C)s1	i	-0.04
O=C(NCc1ccc(F)cc1)C(c1ccccc1)N(C(=O)c1csnn1)C1CCCC1 (stereo not drawn)	i	0.18
CC1CCCN(C(=O)c2ccc3c(=O)n(Cc4ccc5c(c4)OCO5)c(=S)[nH]c3c2)C1 (stereo not drawn)	i	-2.4
CN(c1ccccc1)c1nc2ccsc2c(=O)s1	i	-1.3
CN(Cc1ccccc1)C1=CC(=[N+]2CCCC2)CC(C)(C)C1	i	1.3
CC(C)(C)c1ccc(C(=O)CS(=O)(=O)c2ccccc2)cc1	i	1.7
COc1cc(C(=O)O)ccc1Cl	i	1.1
CSc1ccc(CN2CCC(n3nccc3NC(=O)c3ccccc3C)CC2)cc1	i	-0.06
O=C1N(Cc2cccc(Cl)c2)C[C@@H]2C[C@@H](c3c[nH]c4ccccc34)N3CCC[C@@]123	i	2.3
COc1c(C)cccc1C(=O)NCCCNC(=O)c1ccc(C)nc1	i	0.61
CCCCN(C(=O)CNC(=O)c1ccco1)C(C(=O)NC1CCCC1)c1ccc(OC)cc1 (stereo not drawn)	i	-0.14
NC(=O)C1=CN(Cc2ccc(Cl)cc2)CCC1C(F)(F)F (stereo not drawn)	i	1.2
Cc1cccc2sc(N(CCN(C)C)C(=O)c3cc(Cl)sc3Cl)nc12	i	-0.15
CCN(CC)C1CCN(C(=O)CCc2nnc(CCc3ccccc3)o2)C1 (stereo not drawn)	i	-0.95
CCN1CCN(C(c2cccs2)C(C)NC(=O)C(C)C)CC1 (stereo not drawn)	i	-1.8
Cc1ccccc1C(=O)Nc1cccc(N)c1	i	1.4
Cc1nn2c([nH]c(=O)c3ccccc32)c1C=O	i	-0.58
CCN1C(=O)C2(SC(NC(C)=O)=NN2C(C)=O)c2cc(C)cc(C)c21 (stereo not drawn)	i	-0.03
O=C(N/C(=C/c1cccs1)C(=O)N1CCCCCC1)c1ccccc1	i	0.11
CC(C)NC(=O)c1cc2cc([N+](=O)[O-])ccc2s1	i	-1.5
CCOc1ccc(CCNC(=O)Nc2cccc(OC)c2)cc1OCC	i	-0.07
Cn1nc(C(C)(C)C)cc1C(=O)NN1CCOCC1	i	-0.03
CC1CC(C)CN(S(=O)(=O)c2ccc3c(c2)oc(=O)n3CC(=O)NCc2cccnc2)C1 (stereo not drawn)	i	3.2
O=C(C1CCN(S(=O)(=O)c2cccc3cccnc23)CC1)N1CCN(c2ccc(Cl)cc2)CC1	i	0.27
CCCNC(=O)NC(=O)CN1CCCC1c1ccc2c(c1)OCCO2 (stereo not drawn)	i	-0.27
COC(=O)C1CCN(CCCOc2ccc(CN3CCN(c4ccc([N+](=O)[O-])cc4)CC3)cc2)CC1	i	-0.84
CCC(=O)N(C)CCc1cc2c(c(OC)c1/C=N/NS(=O)(=O)c1ccc(C)cc1)OCO2	i	0.51
O=S(=O)(c1cccc(S(=O)(=O)N2CCC(Cc3ccccc3)CC2)c1)N1CCOCC1	i	0.19
O=C(CNC(=O)c1cnccc1C(F)(F)F)c1cccc(Cl)c1	i	1.8
CN1CCN(c2ccc(S(=O)(=O)N3CCCCC3)cc2NC(=O)COc2ccc([N+](=O)[O-])cc2)CC1	i	-1.7
CCc1noc(C)c1C(=O)N1CCCSC1=Nc1ccccc1	i	1.3
COc1ccc(C(=O)Nc2ccccc2C(=O)N2CCOCC2)cc1	i	-0.35
O=[N+]([O-])c1ccc(N/N=C/c2c[nH]c3ccccc23)cc1	i	2
Cc1sc(N2C(=O)C3C(C2=O)[C@H]2C=C[C@@H]3C2)c(C#N)c1C (stereo partly drawn)	i	-1.9
O=S(=O)(CCN1C=CC(C(F)(F)F)=NCC1)c1ccc(F)cc1	i	1.1
CCOC(=O)N1CCN(C(=O)Nc2ccccc2)CC1	i	-0.14
O=C(/C=C/c1ccccc1[N+](=O)[O-])NCC1CCCO1 (stereo not drawn)	i	-0.7
COCCCNCCCCOc1ccc(C)cc1[N+](=O)[O-]	i	-0.35
COc1ccc(S(=O)(=O)NCC(c2cccnc2)N2CCN(C)CC2)cc1OC (stereo not drawn)	i	0.76
COc1ccc(N2C(=O)CC(NC34CC5CC(CC(C5)C3)C4)C2=O)c(OC)c1 (stereo not drawn)	i	3
O/N=C(\C[n+]1ccccc1)c1ccc(Br)cc1	i	2.1
N#Cc1ccccc1OCC(=O)Nc1c(C(=O)C2CC2)oc2ccccc12	i	0.59
CCC(C)C(NC(=O)OC(C)(C)C)C(=O)NC(C(=O)NC(C)C(N)=O)C(C)C (stereo not drawn)	i	-0.18
COc1ccc(C2(CNC(=O)c3ccc(OC)c([N+](=O)[O-])c3)CCCCC2)cc1OC	i	-0.75
CCCCn1c(SCC(=O)Nc2cc(C)on2)nc2ccccc2c1=O	i	-2.2
Cc1ccc(S(=O)(=O)NCCNc2ccccc2[N+](=O)[O-])cc1	i	0.82
Brc1ccccc1-c1cnco1	i	-0.79

Arranged by value in KCNQ2 block baseline (low to high): 4 from the list above
smiles | KCNQ2 block baseline
Brc1ccccc1-c1cnco1 | -0.79
O=C(/C=C/c1ccccc1[N+](=O)[O-])NCC1CCCO1 (stereo not drawn) | -0.7
CCOC(=O)N1CCN(C(=O)Nc2ccccc2)CC1 | -0.14
COc1ccc(S(=O)(=O)NCC(c2cccnc2)N2CCN(C)CC2)cc1OC (stereo not drawn) | 0.76

An excerpt of these results, with values ahead of the structure.
KCNQ2 block	KCNQ2 block baseline	canonical_smiles
i	-0.7	O=C(/C=C/c1ccccc1[N+](=O)[O-])NCC1CCCO1 (stereo not drawn)
i	-0.35	COCCCNCCCCOc1ccc(C)cc1[N+](=O)[O-]
i	0.76	COc1ccc(S(=O)(=O)NCC(c2cccnc2)N2CCN(C)CC2)cc1OC (stereo not drawn)
i	3	COc1ccc(N2C(=O)CC(NC34CC5CC(CC(C5)C3)C4)C2=O)c(OC)c1 (stereo not drawn)

One compound at a time, from the list above:
`Cc1ccc(S(=O)(=O)NCCNc2ccccc2[N+](=O)[O-])cc1` as listed: KCNQ2 block = i; KCNQ2 block baseline = 0.82
`COc1ccc(S(=O)(=O)NCC(c2cccnc2)N2CCN(C)CC2)cc1OC` (stereo not drawn) as listed: KCNQ2 block = i; KCNQ2 block baseline = 0.76

Additional compounds.
SMILES	KCNQ2 block	KCNQ2 block baseline
O=C(Cc1ccc(Br)cc1)N1CCN(c2ccc(F)cc2)CC1	i	-1.2
CC(C)c1onc(C(=O)N2CCCCC2C)c1[N+](=O)[O-] (stereo not drawn)	i	0.81
CC(C)Oc1ccc(C2CC(=O)N(c3ccc(N(C)C)cc3)C2=O)cc1 (stereo not drawn)	i	-0.58
CC(C)c1cc(=O)oc2c3c4c(cc12)CCCN4CCC3	i	4.1
COc1ccc(Cn2nnnc2C(c2ccc(N(C)C)cc2)N2CCC(C)CC2)cc1 (stereo not drawn)	i	-0.8
COc1ccccc1N1CCN(C(=O)CSc2ncccc2-c2nc3ccccc3[nH]2)CC1	i	-0.47
Cc1cc(C(=O)N2CCCc3ccccc32)no1	i	-0.27
O=C(NCc1cc(C(F)(F)F)cc(C(F)(F)F)c1)C12CN(Cc3ccccc3)CC1C(c1cccc([N+](=O)[O-])c1)=NO2 (stereo not drawn)	i	0.66
Cc1cccc(NCC(=O)N/N=C\c2ccc[nH]2)c1	i	-0.89
O=S(=O)(NCCCc1ccccc1)c1cccc2nsnc12	i	0.3
O=C(CCCN1C(=O)S/C(=C/c2ccccc2)C1=S)Nc1ccc(C(=O)O)cc1	i	0.75
CN(CCCNC(=O)Cn1cc2c(n1)CCCC2)C1CCCCC1	i	-0.12
CCC(C)(C)n1nnnc1CN1CCSCC1	i	-0.46
COc1ccc(C2CC(=O)c3cnn(-c4nc(C)cc(C)n4)c3C2)cc1 (stereo not drawn)	i	0.66
Cc1c(CCO)c(=O)n(-c2ccccc2)n1S(=O)(=O)c1c(Cl)cc(Cl)cc1Cl	i	-1.6
O=C(O)c1cc2c(cc1NC(=O)c1c(F)cccc1F)OCCCO2	i	-0.81
O=C(CSc1nnc(-c2ccncc2)n1-c1ccc(F)cc1)NC(=O)NCc1ccco1	i	0.58
CCOc1ccc(CCNC(=O)c2cccc(S(=O)(=O)N3CCCCC3)c2)cc1OCC	i	-1.6
Cc1ccccc1-n1nnnc1SCC(=O)Nc1ccc(N2CCN(C)CC2)cc1	i	-0.13
Cc1cc(C)cc(NC(=O)c2ccc(CN3CCc4ccccc4C3)cc2)c1	i	-2.2
CC(C)=CC1C(C(=O)Nc2ccc(Br)cn2)C1(C)C (stereo not drawn)	i	1
CCOc1cccc2sc(N(CCN(C)C)C(=O)c3cc4ccccc4cc3OC)nc12	i	-1.3
O=c1[nH]c(SCCOc2ccccc2F)nc2ccccc12	i	-0.56
Cc1ccc2c(C)nc(SC(C(=O)c3ccccc3)c3ccccc3)nc2c1 (stereo not drawn)	-6*	0.68*
Cc1n[nH]c(C)c1-c1nc2ccccc2[nH]1	i	-2
CCCn1c(C(C)NS(=O)(=O)c2ccccc2)n[nH]c1=S (stereo not drawn)	i	-0.89
Cc1c(NC2=CC(=O)CCC2)c(=O)n(-c2ccccc2)n1C	i	-0.38
COc1cc(CNCC2CCCO2)ccc1OCC(N)=O (stereo not drawn)	i	-0.08
O=C(NCCCn1ccnc1)C1CCN(S(=O)(=O)c2ccc(F)cc2)CC1	i	-0.21
Cc1ccc2c(CN3CCCCC3)cc(=O)oc2c1	i	-2.1
CCOc1ccccc1-n1c(SCC(=O)N(C(C)C)C(C)C)nnc1-c1cccnc1	i	-0.42
COc1ccccc1C(NC(=O)CC(C)C)c1c(O)ccc2ccccc12 (stereo not drawn)	i	0.16
CC(=O)Nc1ccc(OC(=O)c2cc3cc(Br)cc(Br)c3oc2=O)cc1	i	-0.8
COc1ccc(/C=C2\SC(=S)N(CCC(=O)Nc3cccc(O)c3)C2=O)cc1OC	i	-0.02
N#Cc1c(/N=C/C=C/c2ccccc2)sc2c1CCCC2	i	-0.05
Cc1cccc(-c2nnc(-c3ccc(N)cc3)o2)c1	i	-0.03
CC(C)n1c(NCCc2ccccc2)nc2c1c(=O)n(C)c(=O)n2C	i	-0.52
Cc1cc(=O)[nH]c(SCC(=O)O)c1C#N	i	2.3
O=C(COC(=O)CSc1ccc2ccccc2c1)NC1CC1	i	0.06
CC(=O)Nc1ccc(/C=N/NC(=O)c2cccc(S(=O)(=O)N3CCOCC3)c2)cc1	i	1.8
CC(C)c1cc(NC(=O)c2ccccc2)cc(C(C)C)c1O	i	-0.33
O=C(C1=C[C@H](c2ccccc2)C[C@H](OCc2ccc(CO)cc2)O1)N1CCOCC1	i	-0.26
COc1ccc(CCNC(=O)c2cccs2)cc1OC	i	0.94
O=C(COC(=O)c1ccncc1)c1ccccc1	i	-0.19
CCOC(=O)N1CCN(C(=O)C2CCN(S(=O)(=O)c3ccc(C)cc3)CC2)CC1	i	0.85
COCCn1c(C)cc(C(=O)COc2ncnc3ccc(Br)cc23)c1C	i	-0.03
COC(=O)C1CCN(Cc2c(C(=O)N3C[C@@H](C)O[C@@H](C)C3)nc3ccc(Cl)cn23)CC1	i	0.06
CC(C)CC1Nc2ccc(C(=O)NCCCN3CCCCC3C)cc2NC1=O (stereo not drawn)	i	-0.52
